# HSD17B inhib = blocks hydroxysteroid 17-beta dehydrogenase activity | 75,000 compounds, 7.6% hits | Q99714 | recombinant HSD17B10, NADH fluorescence kinetic; many of its hits are not listed in these tables | AID 893 | Potency, µM (top dose mostly 57.1 µM), inactives show at the highest dose activity change, negative = inhibition, usual class: inhibitors; active means well fitted inhibition curve with a large enough effect; inconclusive means small, poorly fitted or top-dose-only effect; inactive means no such curve, though single readings can be large or run the other way;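 further: the protocol describes HADH2 (HSD17B10) and not the HSD17B4 of the title; nearly all actives have a fitted effect of over 70% in size; most hits overshoot -100% by far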
#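 Enzyme plus compound, 15 min room temperature; substrate mix added (NAD+ 1 mM, beta-hydroxybutyryl-CoA 90 uM final); plates read kinetically for NADH fluorescence. HADH2 was His-tagged, E. coli-derived, 20 nM.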
# * hit, by the source's call; ? = inconclusive; & = joins results of further samples; [ ] = remark or other dose. On the % scale 0 is the no-effect control and ±100 the full control effect; potency means the concentration at half of the fitted maximal effect. These rows are one share of the data. The share of hits here may be higher or lower than overall.
No.	compound	HSD17B inhib
1	C/C(Cl)=C\CSc1nnc2n(N)c(=O)c3ccccc3n12	-2%
2	CCOC(=O)Cc1csc(NC(=O)CSc2nnc(C3CC3)n2C)n1	3%
3	CCCCNC1C(CC)C(CCC)C(C#N)(C#N)C1(C#N)C#N (centres undefined)	0%
4	Cc1occc(=O)c1O	-2%
5	Cc1ccc(Cc2cnc(N)s2)o1	?
6	Cn1c(=O)[nH]c(=O)c2c1nc(NC1CCCCC1)n2CC(=O)NC1CCCCC1	4%
7	COc1ccc2nc(NC(=O)CN(c3ccc(C)cc3)S(=O)(=O)c3c(C)nn(C)c3C)sc2c1	0%
8	COC(=O)CSc1nnc(CNC(=O)c2ccccc2OC)n1C	-2%
9	Cc1ccc(Nc2nc(C)c(CCC(C)C)c(=O)[nH]2)cc1	8%
10	O=C(CSc1nc2c(sc3ccccc32)c(=O)n1CCO)NCC1CCCO1 (centres undefined)	11%
11	Cc1ccc(CS(=O)(=O)CCC(=O)NCc2cccs2)cc1	-1%
12	Cn1c(=O)cc(SCC(=O)Nc2cccnc2)c2ccccc21	-20%
13	Brc1ccccc1-c1nnc2sc(-c3ccc4c(c3)OCCO4)nn12	32µM*
14	Cc1ccc(Nc2nnc(SCc3cc(=O)n4ccsc4n3)s2)c(C)c1	-22%
15	COc1ccc(C(=O)CSc2nnc(COc3ccccc3)n2Cc2ccco2)cc1	-21%

# The list continues:
No.	compound	HSD17B inhib
16	O=C(N/N=C1/C[C@@H](O)[C@@H](O)[C@@H]2[C@@H]3C(=O)N(C4CCCCC4)C(=O)[C@H]3CC[C@H]12)OCc1ccccc1	-2%[11.4 µM]
17	CCN1C(=O)CC(C(=O)Nc2ccc(F)cc2)SC1=Nc1ccc2c(c1)OCO2 (centres undefined)	-8%
18	CCOC(=O)C(C(=O)OCC)C(C)C#CCN1CCCCC1 (centres undefined)	0%
19	Cc1nc(NCc2ccccc2)c2nc(-c3ccccc3)n(CC(C)(C)CN(C)C)c2n1	32µM*
20	O=C(CSc1nnnn1Cc1ccccc1)c1ccccc1	-19%
21	CO[C@H]1COC(=O)C/C=C\[C@H](C)[C@H](OC)COC(=O)[C@@H](C)COC(=O)C/C=C\[C@@H]1C	7%&-1%[11.4 µM]
22	CCOC(=O)C(C)Sc1nc(-c2ccc(OC)cc2)nc2c1c(=O)n(C)c(=O)n2C (centres undefined)	10µM*
23	COC(=O)c1ccc(C2C3=C(Nc4nnnn42)c2ccccc2OC3)cc1 (centres undefined)	25µM*
24	Cc1cccc(CNc2ccnc(-c3ccccc3Cl)n2)c1	-3%
25	CCCn1c(SCC(=O)NC2CCCCC2)nnc1-c1ccncc1	4%
26	CCC1OC(=O)C(C)[C@@H](O[C@H]2C[C@@](C)(OC)C(O)C(C)O2)C(C)[C@@H](O[C@@H]2OC(C)CC(N(C)C)C2O)[C@@](C)(O)CC(C)C2NC(COCCOC)O[C@H](C2C)[C@@]1(C)O (some centres undefined)	-3%
27	COc1ccc(C(NC(=O)c2ccco2)c2ccc(OC)c(OC)c2)cc1OC	5%
28	Cc1cc2cc(CCNC(=O)c3ccc(S(=O)(=O)N4CCOCC4)cc3)c(=O)[nH]c2cc1C	-9%
29	Clc1ccccc1-c1nc(-c2ccncc2)no1	2%[11.4 µM]
30	CCCS(=O)(=O)N1CCCC(C(=O)N2CCN(C(=O)OCC)CC2)C1 (centres undefined)	-1%

# Later entries:
No.	compound	HSD17B inhib
31	CC(=O)Cc1nsc(NC(=O)c2ccc(-c3ccc(Cl)c(C(F)(F)F)c3)o2)n1	-7%
32	CCN(CC)c1ccc(NC(=O)c2nc3nc(C)cc(C(F)F)n3n2)cc1	-4%
33	CCCCOc1ccc(C2(C)CC(=O)NC2=O)cc1 (centres undefined)	15%
34	CSc1nc(-c2ccccc2O)nc(-c2ccccc2O)n1	13%
35	Cc1nn(-c2ccccc2)nc1CNC(=O)C(C)Cc1ccccc1 (centres undefined)	-7%
36	O=C(CSc1ncccc1C(=O)O)NCCC1=CCCCC1	6%
37	COc1ccc(C2C3=C(CC(c4ccco4)CC3=O)Nc3ccccc3N2C(C)=O)cc1 (centres undefined)	-20%
38	Cc1ccc2ncccc2c1	-1%
39	CCCc1cc(=O)[nH]c(SC(CC)C(=O)Nc2ccccc2C#N)n1 (centres undefined)	9%
40	Cc1cc(C(=O)COC(=O)CCc2nc3ccccc3s2)c(C)n1C	-6%
41	C=CCOC(=O)C(C(C)=O)C(NC(=O)OC)c1ccc(Cl)cc1 (centres undefined)	0%[11.4 µM]
42	COc1ccc(C(=O)CSc2nnc(Cc3ccccc3)o2)cc1	3%
43	Cc1nccn1CC(=O)O	1%
44	CCC(C)NC(=O)C1CCN(C(=O)N(C)C)CC1 (centres undefined)	11%
45	CCOc1ccc(-c2nc(N)nc(C)c2-c2ccc(OC)c(OC)c2)c(O)c1	7%

# Continued.
No.	compound	HSD17B inhib
46	O=C(O)c1ccccc1C(=O)c1cccs1	-2%
47	Cc1c(NS(=O)(=O)CC23CCC(CC2=O)C3(C)C)c(=O)n(-c2ccccc2)n1C (centres undefined)	3%
48	Nc1nonc1-c1noc(COc2ccccc2Cl)n1	7%
49	c1cncc(CNc2ncncc2-c2cccnc2)c1	0%
50	CCOc1ccc2[nH]c(=O)c(CN(Cc3ccco3)C(=O)c3ccc(Br)cc3)cc2c1	13µM*
51	Cc1ccc2nc(-c3ccc(SCC(=O)Nc4cc(C)on4)nc3)[nH]c2c1	?
52	CC(C)C[C@H](N)c1nnc(S(=O)(=O)Cc2cccc(F)c2)o1	-7%
53	Cc1cc(C)nc(N2CCC(C(=O)NCc3cccc(C(F)(F)F)c3)CC2)n1	4%
54	CCOc1ccc(OCC)c(NC(=O)C2CCCN(S(=O)(=O)c3c(C)n[nH]c3C)C2)c1 (centres undefined)	5%
55	CCSCCOC(=O)C1=C(C)NC(=O)NC1c1cccc(OC)c1OC (centres undefined)	55%[activator]
56	COc1ccc(-n2c(=O)c(-c3ccc(F)cc3)nc3cnc(N4CCNCC4)nc32)cc1	10%
57	CCC(=O)Nc1ccc(Cl)c(NC(=O)C(C)C)c1	4%
58	COc1ccccc1C(=O)NCc1ccncc1	10%
59	O=C1C(Cl)=C(Nc2ccc(S(=O)(=O)Nc3ccccn3)cc2)C(=O)c2ccccc21	1.3µM*
60	Cc1ccc(-n2ncc(C#N)c2/N=C/N(C)C)cc1	-4%

# Further records follow:
No.	compound	HSD17B inhib
61	CCOC(=O)C1C(C)N=C2SCC(=O)N2C1c1cccc(Br)c1 (centres undefined)	-6%
62	Cc1nnc(SCc2ccc(C(=O)c3ccc(Cl)cc3)o2)n1-c1ccccc1	-10%
63	CCOC(=O)Nc1c(C)n(C)n(-c2ccccc2)c1=O	11%
64	COc1ccc(C(CNC(=O)Cc2cc(OC)c(OC)c(OC)c2)N2CCCC2)cc1 (centres undefined)	-3%
65	CC1CN(Cc2nc3c(c(=O)[nH]c(=O)n3C)n2CCN2CCOCC2)CC(C)O1 (centres undefined)	-1%
66	Cc1c(NC(=O)C2CCN(S(=O)(=O)c3ccccc3)CC2)c(=O)n(-c2ccccc2)n1C	-2%
67	CN(C)c1ccc(CNC(=O)CN(C)S(=O)(=O)c2cccc3cccnc23)cc1	1%
68	O=C(NCC(c1cccnc1)N1CCOCC1)Nc1ccccc1 (centres undefined)	5%
69	COc1ccc(C2CC(=O)c3cnc(NC(=O)c4ccccc4)nc3C2)cc1OC (centres undefined)	7%
70	COC(=O)C1=C(NC(=O)c2cccs2)CCS1	-6%
71	OC1CC2CC[C@H](C1)N2CCCN1c2ccccc2Sc2ccc(Cl)cc21 (some centres undefined)	-3%[11.4 µM]
72	Cc1ccc(-c2csc(N(CC3CCCO3)C(=O)c3ccco3)n2)cc1 (centres undefined)	-17%
73	COc1cc(OC)c2c(=O)c(OC)c(-c3ccc(OC)c(OC)c3)oc2c1	-22%
74	O=C(NC1CCCC1)C(c1cccs1)N(C(=O)c1ccco1)c1ccc2c(c1)OCCO2 (centres undefined)	-13%
75	Cc1cc(-c2cc(C)c(O)c(C(C)(C)C)c2)cc(C(C)(C)C)c1O	-11%[11.4 µM]

# Rewritten with each value named: 4 of the compounds above.
42: COc1ccc(C(=O)CSc2nnc(Cc3ccccc3)o2)cc1
  HSD17B inhib = 3%
43: Cc1nccn1CC(=O)O
  HSD17B inhib = 1%
44: CCC(C)NC(=O)C1CCN(C(=O)N(C)C)CC1 (centres undefined)
  HSD17B inhib = 11%
45: CCOc1ccc(-c2nc(N)nc(C)c2-c2ccc(OC)c(OC)c2)c(O)c1
  HSD17B inhib = 7%

# (listing goes on)
No.	compound	HSD17B inhib
76	CCCC(=O)Nc1ccc(C(=O)O)cc1NC(=O)CCC	3%
77	CCN1CCN(c2ccc(NC(=O)c3ccc4c(c3)OCO4)cc2)CC1	4%
78	COCCOC(=O)C1=C(C)NC(=O)N(C(C)=O)C1c1ccc(Cl)cc1 (centres undefined)	3%
79	CN(c1ccccc1C(=O)N1CCN(c2cccc(Cl)c2)CC1)S(C)(=O)=O	2%
80	CCCOc1ccc(C(=O)NCc2ccco2)cc1	0%
81	COCCCn1c(SCC(=O)NC(C)C)nnc1-c1ccccc1	3%
82	CC(=O)N=C1SC2CS(=O)(=O)CC2N1c1cccc(Cl)c1Cl (centres undefined)	10%
83	Cc1ccc(-n2cnnn2)c2cccnc12	-4%
84	Cc1cccc(-n2c(=O)cc(N3CCN(c4ccc(F)cc4)CC3)[nH]c2=O)c1	?
85	COc1ccc2c(c1)CCc1c(C(=O)NCc3ccc(F)cc3)noc1-2	9%
86	O=C(Cn1cc2c(n1)CCCC2)NCc1cccc(Cl)c1	15%
87	COc1cccc(NC(=O)CNC(=O)c2ccc(F)cc2)c1	15%
88	Cc1ccccc1C1CC(c2ccc(Br)cc2)Nc2nc(N)nn21 (centres undefined)	1%
89	CC1CCCN(Cc2nc3c(c(=O)n(C)c(=O)n3C)n2Cc2c(F)cccc2Cl)C1 (centres undefined)	?
90	CC1CCCCN1C(=O)CSCC(=O)Nc1nc(-c2cccs2)cs1 (centres undefined)	-9%

# Later entries
No.	compound	HSD17B inhib
91	Cc1ccc(C(=O)NC2CC3CCCC(C2)N3C(=O)NC2CCCCC2)cc1 (centres undefined)	1%
92	Cc1cc(C)cc(OCC(=O)Nc2nonc2NC(=O)COc2cc(C)cc(C)c2)c1	-17%
93	CCCCN(C)C(=O)CS(=O)(=O)Cc1nc(-c2cccc(OC)c2)oc1C	-6%
94	Cc1nn(-c2ccccc2)c(-c2ccccc2)c1C(=O)O	-6%
95	Cn1cc(CC(=O)Nc2cccc(C#N)c2)c2ccccc21	5%
96	COCCNC(=O)c1noc2c1CCc1cc(OC)ccc1-2	10µM*
97	Cc1cccc(CSC2=NCCN2C(=O)c2ccc(Br)o2)c1	-9%
98	CCOC(=O)CSc1nnc(-c2cccs2)n1-c1ccccc1	50%[activator]
99	CN(C(=O)c1ccccc1)C1(C)CCS(=O)(=O)C1 (centres undefined)	18%
100	COC(=O)[C@@]1(Cc2ccccc2)[C@H]2c3cc(C(=O)N(C)C)n(CCN4CNCC4=O)c3C[C@H]2CN1C(=O)c1ccccc1	-9%
101	C=CCn1c(SCC(=O)C(C)(C)C)nnc1-c1ccccn1	1%
102	CCOCC(=O)Nc1nnc(SCCOC)s1	10%
103	CCc1ccc2oc(-c3cc(N)ccc3Cl)nc2c1	20µM*
104	CCc1nc2oc3ccccc3c(=O)c2c(=O)n1Cc1ccccc1	7%
105	O=c1cnc2cnc(Nc3ccccc3)nc2n1C1CC1	-7%

# Other entries follow:
No.	compound	HSD17B inhib
106	CCOc1cc(C(=O)N2CCCC2)cc(OCC)c1OCC	8%
107	O=C1CC(N2CCCCCC2)C(=O)N1c1ccc2c(c1)OCO2 (centres undefined)	-14%
108	CC1CCN(CCn2c(=S)[nH]c3ncccc3c2=O)CC1	-17%
109	CC(c1ccccc1)C1NC(C(=O)O)CS1 (centres undefined)	7%
110	COC(=O)N1CCC[C@@]2(CCN(Cc3cc(C(F)(F)F)cc(C(F)(F)F)c3)C2)C1	5%
111	CCCCCC(=O)O[C@H](CC(=O)O)C[N+](C)(C)C	6%
112	CC(C)n1c(C(O)c2ccc3c(c2)OCO3)nc2ccccc21 (centres undefined)	6%
113	COC(=O)C(C)Sc1nc2c(c(=O)[nH]c(=O)n2C)n1CCC(C)C (centres undefined)	11%
114	Cc1noc(C)c1CSCC(=O)OCc1nc2ccccc2c(=O)n1CC#N	-4%
115	CCOc1ccc(Cl)cc1S(=O)(=O)N1CCCC1	-18%
116	Cc1ccc(/C(COc2ccccc2O)=N\O)cc1	-4%
117	O=C(Nc1ccc(-c2nc3cccnc3s2)cc1)c1ccco1	25µM*
118	CCSc1nnc(NC(=O)C2Cc3ccccc3CN2C(=O)c2ccco2)s1 (centres undefined)	32µM*
119	Cc1ccn2cc(CNC(=O)c3ccc(Br)o3)nc2c1	12%
120	CC(SC1CCCC1)C(=O)Nc1ccnn1C(C)C (centres undefined)	13%

# Other records follow.
No.	compound	HSD17B inhib
121	Cc1ccc(C)c(-n2nnnc2SCC(=O)c2ccc3c(c2)NC(=O)CO3)c1	-24%
122	CC(=O)SC[C@@H](Cc1ccccc1)C(=O)NCC(=O)OCc1ccccc1	4%[25.6 µM]
123	O=C(Nc1ccccn1)c1ccc(NC(=O)c2ccco2)cc1	11%
124	COC(=O)c1cc(NCc2ccc3c(c2)OCO3)ccc1N1CCOCC1	1%
125	Cc1ccc(OCc2nc(C#N)c(N3CCN(Cc4ccccc4)CC3)o2)cc1	-6%
126	O=C(CCSc1nnc(-c2ccco2)o1)Nc1ccccc1	17%
127	CCC(Sc1nc(N)cc(=O)[nH]1)C(=O)NC(C(=O)OC)c1ccccc1 (centres undefined)	9%
128	Cc1cc(C)cc(N(CC(=O)NC2CC3CCC2C3)S(C)(=O)=O)c1 (centres undefined)	0%
